Bioassay records as filed in PubChem BioAssay.
Rango dissoc inh = prevents RanGTP from dissociating the Rango-importin beta complex | Biochemical FRET Rango-importin beta, RanGTP-induced dissociation | Potency, µM (titrated, usually from 46.1 µM), inactives show top-dose activity change, negative = inhibition | 340,000 compounds, 0.071% hits | AID 540253; active means falling FRET ratio curve, often poorly fitted, with flat reads before Ran was added; inconclusive means other falling curves, or compound fluorescence or quenching; inactive means flat or rising ratio curve;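 note: potency is the fitted concentration of half-maximal effect; % of control where 0% means no effect; nearly all actives have a fitted effect of over 45% in size; -100% = wells without RanGTP and RCC1; the record marks most hits as doubtful in a second field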
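Rango/importin beta premix (0.1/0.25 uM final), PBS + 1 mM DTT + 0.02% Tween-20 + 0.1% BSA; cpd 5 min RT; FRET pre-read; + RanGTP-RCC1 (0.6 uM Ran, 2 mM GTP, 0.2 uM RCC1); 45 min RT; FRET post-read, ex 430, em 486/530 nm.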
miR-21 reporter = raises the signal of a miR-21 reporter. HeLa miR-21 FLuc reporter, luciferase, 48 h. Potency, µM (series often up to 38.3 µM), for the others: at the top dose reporter change, positive = more light. 340,000 tested, under 10 active; active = well fitted rising curve with a large enough effect; inconclusive = small, poorly fitted or top-dose-only effect; inactive = no such curve, though single readings can be large or run the other way;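 note: % of control where 0% means no effect; miR-21 action dims this reporter so a rising signal means less miR-21 action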
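HeLa miR-21-FLuc reporter line, endogenous miR-21; 2000 cells/well in DMEM/10% FBS; compound titration up to ~40uM final, 48 h, 37 degree Celsius; luciferase detection reagent, 15 min lysis, CCD luminescence.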
Rango-impB inh = Rango-importin beta binding inhibition; Potency, µM (doses to about 92.2 µM), inactives show at the top dose inhibition of complex formation; 340,000 compounds, 0.031% hits; Q14974; Rango CFP/YFP FRET sensor + importin beta, 45 min; AID 540263; active = rising FRET ratio curve, often small or poorly fitted; inconclusive = mostly compound fluorescence or quenching in the first reads; inactive = flat curves in all reads;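 note: potency is the fitted concentration of half-maximal effect; 0% = DMSO wells and 100% = buffer wells lacking importin beta; nearly all actives have a fitted effect of over 15% in size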
Target sequence (Q14974 whole entry, looked up): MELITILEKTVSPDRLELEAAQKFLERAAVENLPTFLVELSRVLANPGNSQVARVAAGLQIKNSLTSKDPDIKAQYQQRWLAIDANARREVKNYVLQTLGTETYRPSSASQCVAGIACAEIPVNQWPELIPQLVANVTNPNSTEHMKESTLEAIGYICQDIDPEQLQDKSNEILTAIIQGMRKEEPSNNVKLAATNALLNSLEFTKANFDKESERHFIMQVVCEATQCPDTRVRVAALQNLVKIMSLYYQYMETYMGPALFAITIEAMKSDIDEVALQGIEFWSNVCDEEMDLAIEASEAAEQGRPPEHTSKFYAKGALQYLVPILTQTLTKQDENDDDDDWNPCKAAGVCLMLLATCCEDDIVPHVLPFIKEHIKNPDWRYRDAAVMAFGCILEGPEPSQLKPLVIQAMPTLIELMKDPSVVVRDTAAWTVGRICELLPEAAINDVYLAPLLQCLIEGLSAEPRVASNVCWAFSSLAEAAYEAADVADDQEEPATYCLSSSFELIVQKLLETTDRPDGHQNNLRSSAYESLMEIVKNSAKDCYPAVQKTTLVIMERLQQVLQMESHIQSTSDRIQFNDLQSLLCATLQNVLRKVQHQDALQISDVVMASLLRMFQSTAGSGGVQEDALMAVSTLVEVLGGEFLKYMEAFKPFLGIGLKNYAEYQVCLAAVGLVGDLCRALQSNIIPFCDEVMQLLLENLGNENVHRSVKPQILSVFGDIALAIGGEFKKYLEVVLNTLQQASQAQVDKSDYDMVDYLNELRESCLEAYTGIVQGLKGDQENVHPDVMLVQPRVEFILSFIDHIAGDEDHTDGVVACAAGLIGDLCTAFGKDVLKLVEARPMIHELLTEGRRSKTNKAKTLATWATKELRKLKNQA
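FRET biosensor (snurportin 1 IBB flanked by EYFP and cerulean), 50 nM, with compound 5 min, then 0.125 microM importin beta in PBS, 1 mM DTT, 0.02% Tween-20, 0.1% BSA. CFP/YFP ratio read after 45 min at room temperature; pre-read flags interference.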
GLA inh pH 4.5 = blocks human alpha-galactosidase A at pH 4.5. P06280. purified enzyme, 4-MU-alpha-Gal fluorescence, pH 4.5. activity change, negative = inhibition, % at 105 µM. 230,000 tested, under 10 active. AID 1467; inconclusive = small, poorly fitted or top-dose-only inhibition, or a rising curve; inactive = flat fitted curve, though single readings scatter; no compound was filed as active;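 note: 0% = full activity with enzyme and -100% = basal without enzyme; dose as in the result columns while the protocol names 77 µM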
Starred values were filed as active, the others as inactive; u = inconclusive; x = no result given; & = joins results of further samples.

compound | Rango-impB inh | Rango dissoc inh | miR-21 reporter | GLA inh pH 4.5
O=C(COC(=O)c1cc(Cl)nc2ccccc12)c1ccc(Cl)cc1 | -0.9% | 8% | 9% | 6
Cc1cc(Br)c(Oc2cc(NN3CCCCC3)c([N+](=O)[O-])cc2[N+](=O)[O-])c(Br)c1 | -0.9% | 1% | x | x
Cc1ccc(N2C(=O)CC(NNC(=O)Cc3ccc(F)cc3)C2=O)cc1Cl (stereo unspecified) | 1.7% | 10% | -2% | 3
CCOc1ccc(CCNC(=O)CN2C(=O)c3cccnc3Oc3ccc(Cl)cc32)cc1 | 0.1% | -7% | 8%&14% | x
O=C(Nc1cccc(Cl)c1)C1CC1c1ccccc1 (stereo unspecified) | 1.5% | 2% | x | x
O=C(/C(=N\O)n1cncn1)c1ccc(Cl)cc1Cl | -2.3% | 0% | 0% | -1
Cc1ccc(-n2c(-c3nn(C)cc3Cl)n[nH]c2=S)cc1 | -2.0% | 9% | -20% | 6
COC(=O)c1cc(Cl)c(NC(=O)c2ccc(C(C)(C)C)cc2)cc1OC | 0.8% | -5% | -1% | -11
COC(=O)c1cccc(Cn2c(Cl)c(/C=N/NC(=O)c3ccccc3Cl)sc2=O)c1 | -2.9% | 0% | 0% | -3
CN(C)CCC#CC(O)(c1ccccc1)c1ccccc1 | 4.1% | -13% | -9% | 0
CC1Oc2ccccc2N(CC(=O)NCC2CCCO2)C1=O (stereo unspecified) | -0.6% | 4% | -1% | 1
CN(c1ccccc1)S(=O)(=O)c1ccc(C(=O)Nc2nccs2)cc1 | -1.6% | -5% | 0% | -10
Cc1ccc(C(=O)N/C(=C\c2ccc(Cl)cc2)C(=O)NCCN2CCOCC2)cc1 | 3.7% | 3% | 4% | x
O=C(CSCCO)Nc1ccc(C2CCCCC2)cc1 | -0.9% | 10% | -39% | -11
Cc1ccc(NC(=O)CNCc2ccccc2)cc1Br | 2.4% | -1% | -26% | -4

Complete entries from above:
CC1Oc2ccccc2N(CC(=O)NCC2CCCO2)C1=O (stereo unspecified) across the screens: Rango-impB inh = -0.6%; Rango dissoc inh = 4%; miR-21 reporter = -1%; GLA inh pH 4.5 = 1
CN(c1ccccc1)S(=O)(=O)c1ccc(C(=O)Nc2nccs2)cc1 across the screens: Rango-impB inh = -1.6%; Rango dissoc inh = -5%; miR-21 reporter = 0%; GLA inh pH 4.5 = -10

(next part)
compound | Rango-impB inh | Rango dissoc inh | miR-21 reporter | GLA inh pH 4.5
CCCCN1CNC(=S)N(CCc2ccccc2)C1 | 0.9% | 8% | -3% | 7
C/C(=N\NC(=O)C(N)=O)c1ccc2c(c1)OCCO2 | -2.0% | 0% | -6% | 3
NC(=O)CC(NC(=O)Cc1cccc2ccccc12)c1ccc(N2CCC(Br)CC2)c([N+](=O)[O-])c1 (stereo unspecified) | 1.7% | 5% | -2% | -4
COc1ccc(/C=N/NC(=O)c2cc(-c3cccn3C)n[nH]2)cc1OC | 0.0% | 3% | 4% | 3
Cc1c(C(=O)N2CCOCC2)sc(NC(=O)CCl)c1C#N | -1.3% | 8% | 5% | x
O=C(O)CC(C(=O)Nc1cccc(C(F)(F)F)c1)C1CCCO1 (stereo unspecified) | 1.6% | -9% | -2% | 15
Cc1cn(CC(=O)N[C@H](CO)Cc2c[nH]c3ccccc23)c(=O)[nH]c1=O | -3.5% | 0% | x | x
CN1CCN(C(=O)c2ccc(Cl)c(S(=O)(=O)N3CCCCC3)c2)CC1 | 2.9% | -1% | -6% | -5
COc1ccc([N+](=O)[O-])cc1NC(=O)CCC(=O)c1cccs1 | -3.6% | -12% | -1% | 9
COc1cccc(OC)c1CNC(=O)C1CCC(=O)N(CC2CCCCC2)C1 (stereo unspecified) | 3.1% | 7% | 0% | x
CCOC(=O)C(C)CC(C)C(=O)N1CCOCCOCCN(C(=O)C(C)CC(C)C(=O)OCC)CCOCC1 (stereo unspecified) | 1.8% | 3% | -1% | -14
Cc1cccc(NC(=O)CCCN2C(=S)NC(C)(C)CC2C)c1C (stereo unspecified) | 0.4% | -5% | 0% | -3
CC(=NNC(=S)N1CCN(c2ccccn2)CC1)c1nccs1 | 1.4% | 0% | x | x
Cc1ccc(/C=N/N2CCN(c3ccncc3S(=O)(=O)N3CCCCC3)CC2)cc1 | -5.4% | 6% | -2% | -7
CCOC(=O)c1cc(C)sc1/N=C/C1C(=O)CCCC1=O | u | -7% | -6% | 13
COCC1CCCCN1C(=O)c1ccc(OC)c(OC2CCN(C(C)C)CC2)c1 (stereo unspecified) | -0.8% | 31% | -24% | x
Cc1ccc(-c2cc([C@H]3[C@H]4C=CC[C@@H](C)[C@@H]4C(=O)N3Cc3ccccc3)ccc2F)cc1 | -0.1% | 6% | 3% | -6
COc1cccc(NC(=O)CN(C)C(=O)c2ccc(Cl)c(S(=O)(=O)N3CCCCCC3)c2)c1 | -0.2% | -1% | x | x
COCCOc1ccc(C(F)(F)F)cc1NC(=O)COC(=O)c1cc[n+]([O-])cc1 | 2.3% | 3% | x | x
CC(=O)c1cccc(NC(=O)CN2C(=O)NC3(CCCCCCC3)C2=O)c1 | 0.6% | 10% | -10% | -3
Cc1nc(SCC(=O)c2cc3ccccc3oc2=O)c(C#N)c(-c2cccs2)c1C(=O)Nc1ccccc1 | -3.9% | 1% | 5% | 2
O=C1NC(=O)C(CCc2ccccc2)(c2ccccc2)N1 (stereo unspecified) | -0.1% | 1% | x | x
COc1ccccc1CNC(=O)c1cccs1 | u | -13% | -16% | 6
Cn1ncc(Cl)c1C(=O)Nc1ccc(Cl)cn1 | 2.6% | 5% | -6% | 0
CC(C)(C)[C@H]1C=C(C(=O)NCc2nc3ccccc3[nH]2)O[C@@H](OCc2ccc(CO)cc2)C1 | -4.6% | u | 26% | -8
O=[N+]([O-])c1ccc(-c2csc(NN=C3CCCC3)n2)cc1 | -1.9% | 11% | 0% | 4
O=S(=O)(c1ccc(Cl)s1)N1CCC2(CC1)OCCO2 | -0.2% | -3% | -5% | x
Cc1ccc(-n2nc(-c3ccc(OC(F)(F)F)cc3)cc2N)cc1C | 0.2% | 0% | 1% | -29
COC(=O)c1sccc1NC(=O)Nc1ccc(F)cc1F | 1.6% | 0% | 3% | x
Cn1c(C(=O)NC2CCCCC2)cc2c(=O)n(C)c3ccccc3c21 | 0.0% | -4% | -2% | 0
c1ccc2c(c1)c1ccccc1n2CN1CCOCC1 | -0.5% | 0% | -7% | -1
COc1ccc(CNC(=O)CN2C(=O)COc3ccc(S(=O)(=O)NC4CCCC4)cc32)cc1 | -3.3% | 18% | -3%&-7% | x
COc1ccc(CN2C(CC(=O)Nc3cccnc3)c3ccc(C(F)(F)F)cc3S2(=O)=O)cc1 (stereo unspecified) | -3.0% | 12% | x | x
CCN(CC)S(=O)(=O)c1ccc(/C=C/C(=O)OCC(=O)NCc2ccc3c(c2)OCO3)cc1 | 4.3% | 22% | 0% | 4
CC(=O)c1ccc(NC(=O)COC(=O)C2C3CC4OC(=O)C2C4C3)cc1 (stereo unspecified) | 2.9% | 2% | 0% | x
Cc1ccnc(NC(=O)CCNC(=O)c2ccccc2Cl)c1 | -0.5% | 0% | -40% | x
Cc1cccc(NC(=O)NNC(=O)COc2ccc([N+](=O)[O-])cc2)c1C | -2.5% | 7% | -2% | x
O=c1sc2ccccc2n1Cc1ccccc1 | 5.3% | -6% | -16% | 4
Cc1cc(C)nc(Sc2ccc(/C=C(\C#N)C(N)=O)o2)n1 | 3.6% | -9% | -23% | 8
FC(F)(F)c1nnc2ccc(NCn3nnc4ccccc43)nn12 | -1.7% | 13% | -4% | -3
c1ccc(CSc2ncn[nH]2)nc1 | u | -8% | 3% | 7
C[C@@]12CCC3[C@@](CCC4[C@@]3(C)CCC[C@@]4(C)C(=O)NCc3ccccc3)(CC1=O)C2 (stereo partly specified) | 0.0% | -9% | x | x
Cc1cc(C)c(C)c(S(=O)(=O)N2CCN(CC(=O)Nc3sccc3C#N)CC2)c1C | -0.3% | 1% | 2% | -9
O=C(CNc1ccccc1)N/N=C/c1c[nH]c2ccccc12 | 0.1% | 24% | 11% | 3
CC1(C)Oc2ccc(C(=O)Nc3ccccc3)cc2N(CC#N)C1=O | -2.1% | -8% | -20% | x
CCc1cccc(CC)c1NC(=O)Cn1c(-c2ccccc2Cl)nc2ccccc21 | 2.9% | 2% | -24% | 3
Cn1c(SCC(=O)Nc2ccc(N3CCOCC3)c(Cl)c2)nnc1-c1ccccc1 | -6.1% | 9% | x | x
FC(F)(F)Oc1ccc(NC(=S)Nc2ccccc2N2CCOCC2)cc1 | 0.8% | -7% | 3% | -5
NC(=O)c1ccc(NC(=O)COC(=O)c2ccc(Br)o2)cc1 | 3.6% | 13% | x | x
CCOc1ccccc1NC(=O)c1cccc2c1C(=O)N(C1CCCCC1)C2 | 4.5% | -4% | 0%&-2% | x
CC(C)N(C(=NCc1ccccc1)NC(=O)c1ccccc1)C(C)C | -2.2% | -16% | x | x
COc1ccccc1NCC(=O)N/N=C(\C)c1cccs1 | 1.3% | -7% | -13% | 6
CCCCC#Cc1ccccc1CC(=O)Nc1ccccc1 | 0.0% | -7% | -2% | -11&-3
CC(=O)N1CCN(C(=O)c2cccc(S(=O)(=O)N3CCN(c4ccccc4)CC3)c2)CC1 | -0.1% | 5% | x | x
CCCCC(CC(O)COCCC)C(=O)NN (stereo unspecified) | 3.5% | -8% | u | 4
CC1=CC(=O)C(C(C)C)=CC1=NC(=O)c1ccc(C)cc1 | -4.9% | 0% | -1% | -2
O=C(CN1C(=O)NC2(CCc3ccccc32)C1=O)c1ccc(Cl)cc1 (stereo unspecified) | -1.0% | -1% | x | x
O=C(Oc1ccc(-c2nccc(-c3ccccn3)n2)cc1)c1cccc(C(F)(F)F)c1 | 0.1% | -5% | -9% | -8
CN1CCN(C(=O)C2=C[C@@H](C3CCCCC3)C[C@@H](OCc3ccc(CO)cc3)O2)CC1 | 0.2% | 1% | -5% | 3
CCN1C(=O)c2cccc3c(S(=O)(=O)N4CCCC4C(=O)O)ccc1c23 (stereo unspecified) | u | u | 0% | x

More structures.
compound | Rango-impB inh | Rango dissoc inh | miR-21 reporter | GLA inh pH 4.5
CC(O)[C@H]1CNC(=O)C(=O)N1CCc1cccc(F)c1 (stereo partly specified) | 2.8% | -3% | -1% | 18
COc1ccc(CCNC(=S)c2ccccc2)cc1OC | -0.1% | -10% | 15% | x
Nc1c(Cl)c(Cl)nc(C(=O)OCC(=O)NC2CCCCC2)c1Cl | 2.3% | 2% | 1% | x
Cn1c(Cc2ccccc2)nnc1SCC(=O)Nc1ccc2c(c1)OCO2 | -2.6% | 2% | -4% | -7
COc1ccccc1NC(=S)NC1CCC(CC2CCC(NC(=S)Nc3ccccc3OC)CC2)CC1 (stereo unspecified) | -4.8% | 17% | 11% | -1
CN(C)S(=O)(=O)c1ccc(C(=O)NCc2nnc(SCC(=O)NCc3ccco3)o2)cc1 | -0.8% | -7% | 0% | x
O=C(c1c(F)cccc1F)N(Cc1ccccc1)Cc1ccccc1 | -4.6% | -6% | 0% | x
O=[N+]([O-])c1ccc2[nH]c3c(c2c1)CCCC3 | -1.7% | 7% | 12% | -4
O=C(C[C@H]1C[C@H](C(=O)N2CCOCC2)[C@@]2(CCC3CCCC3)c3[nH]c4cc(-c5ccco5)ccc4c3CCN2C1=O)NCCC1=CCCCC1 | 1.8% | -1% | x | x
COc1cc(C2NC(=S)NC(C)=C2C(=O)Nc2ccc(C)cc2)ccc1O (stereo unspecified) | -6.2% | 5% | -47% | 0
Cc1ccc[n+](CC(=O)N2CCCc3ccccc32)c1 | 2.0% | 9% | 0% | 3
CCC(CC)NC(=O)Nc1ccc(C)cc1 | -1.4% | -8% | -12% | -7
Cc1nc(Br)c(Br)c(C)c1Br | u | 6% | -2% | -8
CCCCCc1ccc(-c2cn(CCc3c[nH]c4ccccc34)nn2)cc1 | 0.2% | 0% | 5% | x
CCOC(=O)c1cc(S(=O)(=O)NCc2ccc3c(c2)OCO3)cn1C | -1.1% | 0% | -2% | x
CCCn1c(=O)c(C#N)cn(C2CC2)c1=O | 2.4% | -4% | 0% | -3
NNC(=S)Nc1ccc(S(=O)(=O)N2CCCCC2)cc1 | -0.3% | 12% | -1% | -4

These rows are one share of the data, so the mix of outcomes need not match the whole.
